Screening data as filed in PubChem.
KCNQ2 inh: KCNQ2 potassium channel inhibitors, primary screen, cell-based, CHO-K1, FluxOR thallium flux, B-score (AID 2156); 20 min; hits give low values; only compounds with negative scores are shown here; some inactives read as strong as hits; B-score at 10 µM; 1.1% of 310,000 active;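 active = fluorescence ratio B-score at most minus 3 library SDs, with starting brightness B-score within 2 library SDs, cut at about -5.5 in these data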
Target sequence (O88943 whole entry, looked up): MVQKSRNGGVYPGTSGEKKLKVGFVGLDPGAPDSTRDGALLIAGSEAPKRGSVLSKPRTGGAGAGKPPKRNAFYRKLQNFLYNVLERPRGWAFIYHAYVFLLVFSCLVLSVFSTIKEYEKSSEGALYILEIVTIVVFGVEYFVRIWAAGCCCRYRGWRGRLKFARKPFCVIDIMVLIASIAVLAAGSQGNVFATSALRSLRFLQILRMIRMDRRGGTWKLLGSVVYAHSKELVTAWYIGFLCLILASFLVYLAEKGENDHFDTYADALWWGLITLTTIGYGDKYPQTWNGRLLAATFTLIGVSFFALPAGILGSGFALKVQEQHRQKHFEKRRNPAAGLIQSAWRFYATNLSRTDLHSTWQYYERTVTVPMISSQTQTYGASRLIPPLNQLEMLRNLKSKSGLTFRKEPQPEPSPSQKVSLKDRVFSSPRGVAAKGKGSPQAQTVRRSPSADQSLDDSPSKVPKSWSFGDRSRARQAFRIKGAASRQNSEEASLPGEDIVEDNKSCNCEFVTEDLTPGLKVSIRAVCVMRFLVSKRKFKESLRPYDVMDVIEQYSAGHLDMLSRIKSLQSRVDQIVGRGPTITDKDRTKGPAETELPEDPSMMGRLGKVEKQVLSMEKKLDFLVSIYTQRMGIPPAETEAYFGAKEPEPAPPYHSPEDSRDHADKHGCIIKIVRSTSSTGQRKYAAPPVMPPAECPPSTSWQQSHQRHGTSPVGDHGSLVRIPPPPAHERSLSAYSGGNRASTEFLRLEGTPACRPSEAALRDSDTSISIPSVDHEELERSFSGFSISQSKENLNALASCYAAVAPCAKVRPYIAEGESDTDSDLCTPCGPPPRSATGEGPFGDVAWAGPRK
KCNQ2 inh baseline: recorded beside KCNQ2 inh, whose call it bears; B-score; measured here: initial fluorescence intensity artifact check;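 brightness before thallium and not channel activity; 0 = typical well and far values either way flag optical interference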
Starred values were filed as active, the others as inactive; i = inactive. Only part of the results is shown. The share of hits here may be higher or lower than overall.

SMILES	KCNQ2 inh	KCNQ2 inh baseline
COc1ccc(NC(=O)c2cncc(Br)c2)cc1S(N)(=O)=O	i	0.84
Cc1ccc(C2CC(c3ccc(NS(C)(=O)=O)cc3)=NN2C(=O)c2ccco2)cc1 (configuration not stated)	i	-0.05
O=C(NCc1ccccn1)c1ccc(/C=N/O)nc1	i	2.2
O=C1CC(SC(=Nc2ccccc2)Nc2ccccc2)C(=O)N1c1ccc(Cl)c(Cl)c1 (configuration not stated)	i	1.3
COc1ccc(/C=C/c2ccccc2)cc1[C@H]1[C@H]2C=CC[C@@H](C)[C@@H]2C(=O)N1Cc1ccccc1	i	-0.94
Cc1cc(C)n2nc(SCc3cc(=O)oc4cc(O)ccc34)nc2n1	i	0.47
CC(C)(C)NC(=O)C(c1ccco1)N(Cc1ccc2c(c1)OCO2)C(=O)Cn1nnc2ccccc21 (configuration not stated)	i	6.8
O=C(CN1C(=O)NC2(CCOc3ccccc32)C1=O)c1ccc(F)cc1 (configuration not stated)	i	-0.47
COc1ccc(C(=O)N2CCc3cc4c(cc3C2C)OCCCO4)cc1 (configuration not stated)	i	-0.73
Cc1c(C(c2ccc(Br)cc2)c2c(C)n(C)n(-c3ccccc3)c2=O)c(=O)n(-c2ccccc2)n1C	i	0.07
Cc1ccc(CN2CCNC(=O)C2CC(=O)NCC(F)(F)F)o1 (configuration not stated)	i	-0.28
Cc1ccc(Cl)cc1OCC(=O)NCCOC(=O)Nc1sc(=S)n(C)c1C	i	-0.67
Cc1nn2c(N3CCOCC3)cc(C(C)(C)C)nc2c1-c1ccc(Cl)cc1	i	-0.27
COc1cccc(-c2nnc(SCC(=O)NCc3ccc4c(c3)OCO4)n2Cc2ccco2)c1	i	2
COc1ccc(S(=O)(=O)N2CCCC(C(=O)NC3CCCC3)C2)cc1OC (configuration not stated)	i	1.9
Cc1cccc(C)c1-n1cccc1/C=C1/C(=N)N2C(=NC1=O)SN=C2S(C)(=O)=O	i	-0.91
N#Cc1ccc(COC(=O)C2CCC(=O)N2)cc1 (configuration not stated)	i	-0.01
Cc1ccc(S(=O)(=O)N(C)c2ccc(OCC(=O)NCC3(N(C)C)CCCCC3)cc2)cc1	i	-0.42
O=S(=O)(NC1CCCC1)c1cccc(-c2nnc(-c3ccccc3)o2)c1	i	1.6
CCn1cnc2cc(NCc3nc4ccccc4n3Cc3ccccc3)ccc21	-8.5*	0.04*
Cc1nc(N2CCCCC2)c2c(C)c(C(=O)Nc3cccc(C(F)(F)F)c3)sc2n1	i	0.66
COC(=O)C1=C(C)NC(C)=C(C(=O)OC)C1C(=O)OCC(=O)Nc1ccc(C(C)=O)cc1	i	0.02
Cc1ccc(SCCNC(=O)c2ccc(C)c(S(=O)(=O)Nc3ccccc3C)c2)cc1	i	-0.79
Cc1ccc(NC(=O)c2cc(S(=O)(=O)N3CCCCC3)c[nH]2)cc1F	i	-0.88
CCC1c2ccc(C)n2CCN1C(=O)Nc1ccccc1OC (configuration not stated)	i	1.5
CCc1nc(N2CCN(C(=O)CCl)CC2)c2c3c(sc2n1)CC(C)CC3 (configuration not stated)	i	0.71
CC1(C)NC(=O)N(CC(O)COc2ccc(N3C(=O)c4ccccc4C3=O)cc2)C1=O (configuration not stated)	i	-1.3
CC(C)OCCCNC(=O)C(Cc1ccccc1)NS(=O)(=O)c1ccc2c(c1)CCC(=O)N2 (configuration not stated)	i	1.9
NCC(=O)Nc1ccc(Br)cc1	i	-1.3
CCn1nc(NS(=O)(=O)c2ccccc2[N+](=O)[O-])c2cc3ccc(C)cc3nc21	i	-0.24

Five entries from above, sorted by length of the SMILES, high to low.
SMILES	KCNQ2 inh	KCNQ2 inh baseline
COC(=O)C1=C(C)NC(C)=C(C(=O)OC)C1C(=O)OCC(=O)Nc1ccc(C(C)=O)cc1	i	0.02
CCn1nc(NS(=O)(=O)c2ccccc2[N+](=O)[O-])c2cc3ccc(C)cc3nc21	i	-0.24
Cc1ccc(NC(=O)c2cc(S(=O)(=O)N3CCCCC3)c[nH]2)cc1F	i	-0.88
CCc1nc(N2CCN(C(=O)CCl)CC2)c2c3c(sc2n1)CC(C)CC3 (configuration not stated)	i	0.71
NCC(=O)Nc1ccc(Br)cc1	i	-1.3

More entries follow.
SMILES	KCNQ2 inh	KCNQ2 inh baseline
Cc1ccc(Cn2c(=N)n(CC(O)COc3ccccc3)c3ccccc32)cc1 (configuration not stated)	i	-1.2
CCOc1ccc(NC(=O)C2CCCCN2S(=O)(=O)c2ccccc2)cc1 (configuration not stated)	i	0.55
CCN(CC)S(=O)(=O)c1ccc(N2CCN(CCO)CC2)nc1	i	2.1
CC(=O)c1sc(NCc2ccccc2)nc1C	i	0.93
O=C(NCCN1CCOCC1)c1ccc(CS(=O)(=O)c2ccc(Cl)cc2)o1	i	-0.33
Cn1c(SCC(=O)Nc2ccc3c(c2)n(C)c(=O)n3C)nnc1-c1ccncc1	i	1.4
O=c1oc(-c2ccc(Br)cc2)nc2ccccc12	i	0.35
COc1cc(NC(=O)c2cccs2)c(C(=O)OCC(=O)NCc2ccco2)cc1OC	i	-0.03
Cc1ccc(CNC(=O)CSc2nc3ccsc3c(=O)n2NC(=O)c2ccccc2)cc1	i	0.58
Nc1nc(-c2cccnc2)nn1C(=O)Cc1ccccc1	i	2.1

Single values from the list.
`O=c1oc(-c2ccc(Br)cc2)nc2ccccc12` – KCNQ2 inh baseline: 0.35
`Cc1ccc(Cn2c(=N)n(CC(O)COc3ccccc3)c3ccccc32)cc1` (configuration not stated) – KCNQ2 inh baseline: -1.2

New compounds follow
SMILES	KCNQ2 inh	KCNQ2 inh baseline
Cc1cc2c(ncn2C)c(NS(=O)(=O)c2cc(Cl)ccc2Cl)c1C	i	2
CCCCc1ccc(NC(=O)C(=O)NCCN2CCN(Cc3ccc([N+](=O)[O-])cc3)CC2)cc1	i	1.2
O=C1OCCC1Sc1nnc(-c2ccccc2Br)n1Cc1ccccc1 (configuration not stated)	i	0.1
CC(=O)/C(N=Nc1cc(C)ccc1O)=C(\C)O	i	-0.03
CN1CCN(c2cc3c(c4c2[nH]c2ccccc24)C(=O)CC(C)(C)C3)CC1	i	-0.56
CCN(CC)C(=O)c1[nH]cnc1C(=O)NCC(=O)OCc1ccccc1	i	0.94
Cc1ccc2nc(-c3ccncc3)c(Nc3ccccc3)n2c1	i	1.1
Cc1ccc(NC(=O)CN(C)S(=O)(=O)c2cccc3nsnc23)cc1Cl	i	-0.03
Cc1ccc(CSCCNS(=O)(=O)c2ccccc2)cc1	i	0.12
CS(=O)(=O)N1CCN(c2ccc([N+](=O)[O-])c(NCc3ccccc3)c2)CC1	i	-0.72
CSc1ccc(CNCC(O)c2ccccc2)cc1 (configuration not stated)	i	-1.6
c1ccc(-c2cc(N3CCCCC3)ncn2)cc1	i	0.03
COCCN1C(=O)c2oc3c(C)cc(C)cc3c(=O)c2C1c1cccc(O)c1 (configuration not stated)	-6.4*	-3*
CC1CCN(C(=O)CSc2nnc(Cc3cccn3C)n2-c2ccc(F)cc2)CC1	i	0.35
O=C(NCC(=O)N1CCN(S(=O)(=O)c2ccccc2F)CC1)c1ccc(Br)o1	i	2.1
CCOC(=O)c1sc(=S)n(-c2ccc(OC)cc2)c1N	i	-0.37
Clc1ccc(-c2nc(NCCN3CCOCC3)c3ccccc3n2)cc1	i	-2.5
Cc1ccc(NC(=O)CN2C(=O)CCSc3ccc(S(=O)(=O)N4CCCC4)cc32)cc1	i	-0.06
CCN(CCNC(=O)C1CCN(Cc2nc(-c3cccc(Cl)c3)oc2C)CC1)c1ccccc1	-12*	0.27*
O=C(Cn1c(=S)[nH]c2ccccc2c1=O)N1CCN(c2ccc(F)cc2)CC1	i	0.68
COC(=O)c1ccc(N(C(=O)CNC(=O)c2ccco2)C(C(=O)NC2CCCC2)c2ccco2)cc1 (configuration not stated)	i	1.2
COc1ccc(-c2csc3ncnc(N4CCN(c5ccccc5)CC4)c23)cc1	i	0.87
CCC(Oc1ccccc1C)C(=O)Nc1ccc(S(=O)(=O)Nc2cc(C)on2)cc1 (configuration not stated)	i	-1
COc1ccc(/C=C2\SC(=O)N(CC(=O)Nc3cccc(C)c3)C2=O)cc1O	i	-0.68
COc1cccc(C(=O)Oc2ccc3c(C)cc(=O)oc3c2C(C)=O)c1	i	-0.04
COc1cccc(N2CCN(C(=O)c3[nH]c(C)c(C(C)=O)c3C)CC2)c1	i	0.19
C=CCNC(=O)Nc1cc(Cl)ccc1OC	i	-0.03
COC(=O)c1ccccc1NC1CC(=O)N(c2c(C)cccc2C)C1=O (configuration not stated)	i	4.3
O=C(O)c1cc(N/N=C/c2cccs2)ccc1Cl	i	-0.07
CCONC(=O)Nc1ccccc1	i	1.2
O=C(c1ccccc1)C1C(=O)c2ccccc2C1=O	i	-1.1
NC(=O)NOCc1ccc(F)cc1Cl	i	-0.05
Cc1cc[n+](C2=C([O-])c3ccccc3C(=O)/C2=N\S(=O)(=O)c2cccs2)cc1C	i	1.8
C/C(=N\NC(=O)c1cc(C(C)(C)C)[nH]n1)C12CC3CC(CC(C3)C1)C2	i	-0.77
CC(OC(=O)c1cc(S(=O)(=O)N(C)c2ccccc2)ccc1Cl)C(=O)Nc1ccc2c(c1)OCCO2 (configuration not stated)	i	-0.26
COC(CNC(=O)c1ccc(CS(=O)(=O)c2ccccc2)o1)OC	i	-0.72
CCCc1nn2c(=O)cc(CSCC(=O)Nc3cccc(C)c3)nc2s1	i	2.9
Cc1ccc(-n2c(C)cc3c2CC(C)(C)CC3=O)cc1C	i	-2.7
O=C(COC(=O)c1ccc(O)cc1O)N=c1sccn1Cc1ccccc1Cl	i	-1.4
Cc1cc(NC(=O)C2CC2)ncc1NC(=O)c1ccccn1	i	-0.8
COc1ccc(CCN=CC2=C(O)CCCC2=O)cc1OC	i	-0.46
COc1ccc([N+](=O)[O-])cc1N(CC(=O)NC1CCCCC1)S(C)(=O)=O	i	0.08
COc1ccc2nc(NC(=O)C3CCCN(S(=O)(=O)c4cccc5nsnc45)C3)sc2c1 (configuration not stated)	i	-0.2
COc1ccc(N2CCN(C(=O)NC3CC(=O)N(c4ccc(OC)cc4)C3)CC2)cc1 (configuration not stated)	i	-1.8
COc1ccc(Cl)cc1NC(=O)CCc1nnc2ccc(N3CCN(C)CC3)nn12	i	0.05
Cc1cccc(NC(=O)CCCn2c(=S)[nH]c3ccccc3c2=O)c1	i	0.18
Cc1cccc(/C=N/Nc2ccc3ccccc3n2)c1	i	0.03
CC(C)N(C)S(=O)(=O)c1ccc(Cl)c(C(=O)O)c1	i	2
O=C(c1ccccc1)N1CC(COc2ccccc2)OC(c2ccco2)O1 (configuration not stated)	i	0.88
NS(=O)(=O)c1ccc(NC(=S)NC2CCCC2)cc1	i	-0.01

Three successive compounds out of the list so far:
SMILES	KCNQ2 inh	KCNQ2 inh baseline
CC(C)N(C)S(=O)(=O)c1ccc(Cl)c(C(=O)O)c1	i	2
O=C(c1ccccc1)N1CC(COc2ccccc2)OC(c2ccco2)O1 (configuration not stated)	i	0.88
NS(=O)(=O)c1ccc(NC(=S)NC2CCCC2)cc1	i	-0.01

The results go on:
SMILES	KCNQ2 inh	KCNQ2 inh baseline
COc1ccc(-c2n[nH]c3c2C(c2ccc(OC)c(OC)c2)N(c2ccccc2)C3=O)cc1 (configuration not stated)	i	-0.96
CCOC(=O)c1cnn(-c2ccccc2)c1-c1ccccc1	i	1.8
Cn1cc(CCNC(=O)CC2C(=O)NCCN2CC(c2ccccc2)c2ccccc2)cn1 (configuration not stated)	i	0.7
O=c1[nH]cnc2ccc([N+](=O)[O-])cc12	i	0.46
Cc1ccccc1Cn1c(=O)n(C)c(=O)c2sccc21	i	2.4
C/C(CC(=O)Nc1ccc([N+](=O)[O-])cc1)=N/NC(=O)C1CC12CCC2 (configuration not stated)	i	1.7
Cc1ccc(/C=C/C(=O)Nc2ccc([N+](=O)[O-])c(NC(=O)/C=C/c3ccc(C)o3)c2)o1	i	0.98
Cc1ccc(N(C(=O)c2snc(C(N)=O)c2N)C(CC(C)C)C(=O)NC2CCCC2)cc1 (configuration not stated)	i	2.2
COc1ccc(Oc2ccc(/C=C/C(=O)c3ccc(O)cc3)cc2[N+](=O)[O-])cc1	i	-0.33
Cc1cccc(NC(=O)CSc2nsc(SCC(=O)Nc3cccc(C)c3)c2C#N)c1	i	0.18

Five of the compounds above, with values ahead of the structure:
KCNQ2 inh	KCNQ2 inh baseline	compound
i	0.7	Cn1cc(CCNC(=O)CC2C(=O)NCCN2CC(c2ccccc2)c2ccccc2)cn1 (configuration not stated)
i	0.18	Cc1cccc(NC(=O)CSc2nsc(SCC(=O)Nc3cccc(C)c3)c2C#N)c1
i	-0.33	COc1ccc(Oc2ccc(/C=C/C(=O)c3ccc(O)cc3)cc2[N+](=O)[O-])cc1
i	0.46	O=c1[nH]cnc2ccc([N+](=O)[O-])cc12
i	0.98	Cc1ccc(/C=C/C(=O)Nc2ccc([N+](=O)[O-])c(NC(=O)/C=C/c3ccc(C)o3)c2)o1

Next part:
SMILES	KCNQ2 inh	KCNQ2 inh baseline
CC(=O)c1cc(C(=O)N2CCCC(C(=O)c3ccc(Cl)cc3)C2)cs1 (configuration not stated)	i	-1.6
COc1ccccc1/C=C/C(=O)Nc1cccc(C(C)=O)c1	i	0.52
CCOc1ccc(CCNC(=O)COC(=O)c2ccc(Cl)nc2)cc1OCC	i	1.3
CCN(C(=O)Cc1c(C(=O)O)n(CC)c2ccccc12)c1ccccc1C	i	-0.73
COc1cc(Br)cc2cc(C(=O)N3CCN(c4ccccn4)CC3)c(=O)oc12	i	0.88
Cc1cccc(C)c1NC(=O)CN(C)C(=O)c1ccc2nc[nH]c2c1	i	0.52
O=c1[nH]ncc(N2CCCCCC2)c1Cl	i	-0.09
CC(=O)N=C1SC2CS(=O)(=O)CC2N1c1c(Cl)cccc1Cl (configuration not stated)	i	0.49
CC1(CCc2ccc3c(c2)OCO3)NCCc2c1[nH]c1ccccc21 (configuration not stated)	i	-1.1
